FGF22 binding – shifts melting point of recombinant human FGF22; calls only at 9.99 µM; recombinant FGF22 thermal shift, SYPRO orange fluorescence; percent of sucrose octasulfate shift, DMSO zero; Q9HCT0; hit rate 1.5% among 340,000;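 active = melting point raised past a set limit in the mean and every replicate; three in four hits are not shown here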
Target sequence (Q9HCT0 whole entry, looked up): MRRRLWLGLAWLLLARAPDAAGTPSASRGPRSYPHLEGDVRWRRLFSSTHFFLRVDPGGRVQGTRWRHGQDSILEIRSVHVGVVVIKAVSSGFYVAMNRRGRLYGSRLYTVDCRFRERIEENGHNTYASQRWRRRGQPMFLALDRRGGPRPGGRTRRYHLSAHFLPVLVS
Ecoli growth – blocks Escherichia coli growth | OD600, 23 h; stronger effect = lower value | OD600 absorbance (concentration not given with the values) | hit rate 0.21% among 330,000 | AID 1053175;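 active = OD600 absorbance below the run mean of sample wells minus 3.6 SD, in any replicate, cut at about 0.56 in these data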;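 also: stock transfer was 300 nL into about 60 µL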
rRNA inh HTS – inhibits bacterial ribosomal RNA function over humanized ribosomes. E. coli WT GFP vs humanized-ribosome RFP mutants, fluorescence, 24 h; stronger effect = lower value; DMSO median 0, no signal -100. GFP signal change (wild-type ribosome), % (no concentration beside the values). hit rate 1.6% among 350,000;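 active = significant combined selectivity score with lowered wild-type GFP, culture density cut under 30%, mutant RFP and density less affected; inactive = any of these conditions unmet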; also: one replicate is shown; some compounds called inactive have numbers as strong as hits
ALR inh – human ALR oxidase inhibition via reduced H2O2. P55789. hit rate 3.8% among 290,000. purified ALR, DTT oxidation, H2O2 HRP-luminol luminescence. inhibition, % (test concentration not listed);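 active = mean and each replicate at 75% or more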;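 also: stock transfer was 7.5 nL into about 7.5 µL; 0% = neutral wells and 100% = wells with inactivated enzyme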
Target sequence (P55789 whole entry, looked up): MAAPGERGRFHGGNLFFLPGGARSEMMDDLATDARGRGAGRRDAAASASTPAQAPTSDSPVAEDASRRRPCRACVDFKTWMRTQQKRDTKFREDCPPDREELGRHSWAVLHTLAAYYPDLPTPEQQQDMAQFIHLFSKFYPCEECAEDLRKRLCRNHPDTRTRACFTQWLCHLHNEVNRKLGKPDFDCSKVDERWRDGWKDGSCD
AF4-AF9 inh – blocks AF4 peptide binding to human AF9. P42568. AlphaScreen, biotin-AF4 peptide binding to FLAG-AF9. inhibition, % at 10 µM. hit rate 0.47% among 350,000. AID 651704;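 active = every replicate reaching a set inhibition limit, whatever the replicate mean, cut at about 25% in these data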;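 also: 0% = plate neutral control median and 100% = total signal loss; the record names both 10 and 1 µM as test concentration; the first replicate is given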
HNF4A DNA FP – change in binding of human HNF4 alpha to DNA; hit rate 0.3% among 360,000; HNF4a-FITC DNA binding, fluorescence polarization, 1 h; activity change, % at 10 µM; in the data active = activity change above about 30%, passing the limit was not always enough;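 also: controls were the assay level and a saturating level of protein; the project sought stronger binding though the title names inhibitors; some compounds called inactive have numbers as strong as hits; positive values seem to mean higher polarization but the record does not say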
Target sequence (P41235 whole entry, looked up): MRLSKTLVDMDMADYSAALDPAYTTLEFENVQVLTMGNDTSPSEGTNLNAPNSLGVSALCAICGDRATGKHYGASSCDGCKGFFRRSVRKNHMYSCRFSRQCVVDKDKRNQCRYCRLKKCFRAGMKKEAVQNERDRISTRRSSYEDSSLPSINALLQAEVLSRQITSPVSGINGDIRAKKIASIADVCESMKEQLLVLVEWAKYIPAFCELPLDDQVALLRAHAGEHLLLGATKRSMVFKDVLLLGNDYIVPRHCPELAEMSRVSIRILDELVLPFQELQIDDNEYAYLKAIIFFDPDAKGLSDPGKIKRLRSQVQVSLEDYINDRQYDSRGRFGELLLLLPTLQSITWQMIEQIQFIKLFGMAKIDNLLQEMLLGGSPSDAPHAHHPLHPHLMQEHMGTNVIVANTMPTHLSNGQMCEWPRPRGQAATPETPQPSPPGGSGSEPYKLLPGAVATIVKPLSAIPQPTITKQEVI
Vif TR-FRET – HIV-1 Vif–A3G interaction blockers – biochemical, TR-FRET, GST-Vif 1-94, biotin-A3G peptide, dose response retest, primary screen (AID 1117319) | inhibition, %, or IC50 in µM where a hit was titrated | TR-FRET GST-Vif / biotin-A3G peptide binding; higher % means a stronger effect; test concentration not given here; strong numbers were not always called active | hit rate 0.57% among 260,000;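 active = above the screen mean plus three standard deviations and confirmed in dose response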;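 also: Vif residues 1-94 fused to GST binding biotinylated APOBEC3G peptide 110-148; 0% = full assay without inhibitor and 100% = GST in place of GST-Vif; retest series ran down from 100 µM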
rRNA inh HTS OD600 – second read-out of rRNA inh HTS, no call of its own (marks repeat the call); OD600 change, %; measured here: OD600 growth;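 optical density of the mix in the first replicate; 0 = DMSO median and -100 = no signal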
rRNA inh HTS RFP – further read-out of rRNA inh HTS, marked with its call; RFP signal change, %; measured here: RFP humanized mutant strains;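 first replicate; 0 = DMSO median and -100 = no signal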
* hit, by the source's call. Not all compounds are listed (hit frequency here may not be typical).

For O=C(C1CCN(S(=O)(=O)c2cccnc2)CC1)N1CCN(c2cccc(Cl)c2)CC1 the results were FGF22 binding inactive, Ecoli growth 0.72, rRNA inh HTS 8.9, AF4-AF9 inh 2.3, HNF4A DNA FP 3.0, Vif TR-FRET 13.6%, rRNA inh HTS OD600 -9.8 and rRNA inh HTS RFP 1.4.
O=C(N/N=C/c1ccc(OC2CSC2)cc1)c1ccc(CN2CCOCC2)cc1 was read as FGF22 binding inactive, rRNA inh HTS 4.8, ALR inh -5.8, AF4-AF9 inh -1.1, HNF4A DNA FP -2.4, Vif TR-FRET 4.3%, rRNA inh HTS OD600 5.8 and rRNA inh HTS RFP -1.9.
CC(=O)c1cccc(NC(=O)CNC(=O)c2cc3ccccc3o2)c1 was read as FGF22 binding inactive, Ecoli growth 0.665, rRNA inh HTS 14.2, ALR inh -19.6, AF4-AF9 inh -5.5, HNF4A DNA FP 0.1, Vif TR-FRET -20.0%, rRNA inh HTS OD600 14.3 and rRNA inh HTS RFP 1.9.
Screening Nc1ccccc1C(=O)NNC(=O)C(=O)/C=C(\O)c1ccccc1 returned FGF22 binding inactive, Ecoli growth 0.671, rRNA inh HTS -13.8, ALR inh 3.9, AF4-AF9 inh 0.2, HNF4A DNA FP 2.2, Vif TR-FRET 15.6%, rRNA inh HTS OD600 -0.2 and rRNA inh HTS RFP 4.6.
`COc1ccc(Cn2c(-c3ccc(OC)cc3)nc3ccccc32)cc1` gave FGF22 binding inactive, Ecoli growth 0.644, rRNA inh HTS 7.1, ALR inh -0.3, AF4-AF9 inh 4.3, HNF4A DNA FP -4.4, Vif TR-FRET -12.0%, rRNA inh HTS OD600 14.4 and rRNA inh HTS RFP 2.5.
Screening Cc1onc(-c2c(Cl)cccc2Cl)c1C(O)c1ccc(F)cc1 (centres undefined) returned FGF22 binding inactive, Ecoli growth 0.671, rRNA inh HTS -21.2, ALR inh -7.5, AF4-AF9 inh -1.4, HNF4A DNA FP 4.5, Vif TR-FRET -1.4%, rRNA inh HTS OD600 -38.3 and rRNA inh HTS RFP -9.7.
Screening COc1ccc(-c2cnc3ccccc3n2)cc1NC(=O)CNC(=O)c1ccccc1 returned FGF22 binding inactive, Ecoli growth 0.708, rRNA inh HTS 13.4, ALR inh -10.3, AF4-AF9 inh -4.3, HNF4A DNA FP 2.1, Vif TR-FRET 0.8%, rRNA inh HTS OD600 21.4 and rRNA inh HTS RFP -0.8.
For CN(C)C(=O)C[C@@H]1C[C@@H]2c3cc(NC(=O)c4ccc5c(c4)OCO5)ccc3O[C@@H]2[C@@H](CO)O1 the results were FGF22 binding inactive, rRNA inh HTS 1.5, AF4-AF9 inh 0.7, rRNA inh HTS OD600 -2.2 and rRNA inh HTS RFP -0.1.
For O=C(C[n+]1cc(-c2ccc(F)cc2)n2c1CCC2)Nc1nc(-c2ccccc2)cs1 the results were Ecoli growth 0.657, ALR inh -61.8, HNF4A DNA FP 2.9 and Vif TR-FRET 31.9%.
For O=C(C[C@@H]1CC[C@H]2[C@@H](COC[C@H](O)CN2Cc2ccc3c(c2)OCO3)O1)Nc1ccc(-c2ccccc2)cc1 the results were FGF22 binding inactive, rRNA inh HTS 3.4, AF4-AF9 inh 1.7, rRNA inh HTS OD600 -48.5 and rRNA inh HTS RFP 3.1.
`CCCNC(=O)N[C@@H]1CC[C@@H](CC(=O)NC2CCCCC2)O[C@H]1CO` gave FGF22 binding inactive, rRNA inh HTS -1.7, AF4-AF9 inh 0.2, rRNA inh HTS OD600 -4.1 and rRNA inh HTS RFP -3.0.
For CCC1CCCCN1C(=O)CSc1nnc2nc(C)cc(C)n12 (centres undefined) the results were FGF22 binding inactive, Ecoli growth 0.678, rRNA inh HTS 2.9, ALR inh -8.6, AF4-AF9 inh -2.9, HNF4A DNA FP 0.1, Vif TR-FRET 19.3%, rRNA inh HTS OD600 4.6 and rRNA inh HTS RFP -4.2.

Three compounds already listed, sorted by count of non-hydrogen atoms, low to high.
`CCCNC(=O)N[C@@H]1CC[C@@H](CC(=O)NC2CCCCC2)O[C@H]1CO` gave FGF22 binding inactive, rRNA inh HTS -1.7, AF4-AF9 inh 0.2, rRNA inh HTS OD600 -4.1 and rRNA inh HTS RFP -3.0.
`COc1ccc(Cn2c(-c3ccc(OC)cc3)nc3ccccc32)cc1` gave FGF22 binding inactive, Ecoli growth 0.644, rRNA inh HTS 7.1, ALR inh -0.3, AF4-AF9 inh 4.3, HNF4A DNA FP -4.4, Vif TR-FRET -12.0%, rRNA inh HTS OD600 14.4 and rRNA inh HTS RFP 2.5.
For O=C(C1CCN(S(=O)(=O)c2cccnc2)CC1)N1CCN(c2cccc(Cl)c2)CC1 the results were FGF22 binding inactive, Ecoli growth 0.72, rRNA inh HTS 8.9, AF4-AF9 inh 2.3, HNF4A DNA FP 3.0, Vif TR-FRET 13.6%, rRNA inh HTS OD600 -9.8 and rRNA inh HTS RFP 1.4.

Next part:
For CC(C)(C)c1ccc(/C=C/C(=O)NC2CCS(=O)(=O)C2)cc1 (centres undefined) the results were FGF22 binding inactive, Ecoli growth 0.634, rRNA inh HTS -3.3, ALR inh -2.1, AF4-AF9 inh 1.4, HNF4A DNA FP -3.0, Vif TR-FRET -3.6%, rRNA inh HTS OD600 -8.3 and rRNA inh HTS RFP -2.0.
For CCCCCNC(=O)CN(c1ccc2c(c1)OCO2)S(C)(=O)=O the results were FGF22 binding inactive, Ecoli growth 0.729, rRNA inh HTS 6.9, ALR inh 6.0, AF4-AF9 inh -31.1, HNF4A DNA FP 1.3, Vif TR-FRET -5.3%, rRNA inh HTS OD600 7.5 and rRNA inh HTS RFP -1.7.
`CCOC(=O)CSc1nnc(CNc2nc(-c3ccccc3)cs2)n1C` gave Ecoli growth 0.685, ALR inh 6.9, HNF4A DNA FP 0.8 and Vif TR-FRET 9.1%.
Screening Cc1noc(C)c1S(=O)(=O)Nc1ccc2c(c1)C(=O)N([C@@H](C)CO)C[C@@H](C)[C@H](CN(C)Cc1ccc(C(=O)O)cc1)O2 returned FGF22 binding inactive, rRNA inh HTS 3.0, AF4-AF9 inh -1.6, rRNA inh HTS OD600 0.1 and rRNA inh HTS RFP -3.2.
Screening CCCC#Cc1ccc([C@@H]2[C@@H](CO)N3CCCCN(S(=O)(=O)c4ccccc4F)C[C@@H]23)cc1 returned FGF22 binding inactive, rRNA inh HTS 1.4, AF4-AF9 inh -6.8, rRNA inh HTS OD600 -4.5 and rRNA inh HTS RFP 1.5.
COc1ccc(C(=O)N/N=C(\C)c2ccc(NC(=O)Cc3ccccc3)cc2)c(OC)c1 was read as FGF22 binding inactive, rRNA inh HTS 9.0, ALR inh -2.8, AF4-AF9 inh 1.3, HNF4A DNA FP 2.1, rRNA inh HTS OD600 9.7 and rRNA inh HTS RFP 1.4.
`COc1ccc(CN2C(CC(=O)Nc3cccnc3)c3ccc(C(F)(F)F)cc3S2(=O)=O)cc1` (centres undefined) gave FGF22 binding inactive, rRNA inh HTS -32.0, AF4-AF9 inh 1.7, HNF4A DNA FP -0.6, Vif TR-FRET -3.7%, rRNA inh HTS OD600 -36.7 and rRNA inh HTS RFP -8.8.
COCC(=O)N1CCCCN2[C@H](C1)[C@@H](c1ccc(C#Cc3ccc(OC)cc3)cc1)[C@@H]2CO was read as FGF22 binding inactive, rRNA inh HTS -44.2, AF4-AF9 inh -6.8, rRNA inh HTS OD600 -70.3 and rRNA inh HTS RFP -0.8.
`COc1ccccc1OCC(=O)N1CCN(C(=O)COc2ccccc2OC)CC1` gave FGF22 binding inactive, Ecoli growth 0.682, rRNA inh HTS 1.3, AF4-AF9 inh -5.9, HNF4A DNA FP 2.2, rRNA inh HTS OD600 1.6 and rRNA inh HTS RFP 0.3.
Screening CN1CCn2cnc(C(=O)NCC(=O)OC(C)(C)C)c2C1=O returned FGF22 binding inactive, rRNA inh HTS 8.0, AF4-AF9 inh -0.8, HNF4A DNA FP 1.4, Vif TR-FRET -13.2%, rRNA inh HTS OD600 7.2 and rRNA inh HTS RFP 1.9.
For CCC(NS(=O)(=O)c1ccc(C)cc1)C(=O)N1CCOCCOCCOCC1 (centres undefined) the results were FGF22 binding inactive, Ecoli growth 0.666, rRNA inh HTS 11.9, ALR inh -13.7, AF4-AF9 inh -1.5, HNF4A DNA FP -1.8, rRNA inh HTS OD600 13.4 and rRNA inh HTS RFP 3.0.
For COc1ccccc1CCN1CCCC(CN(C)CC(C)(C)CO)C1 (centres undefined) the results were FGF22 binding inactive, Ecoli growth 0.607, rRNA inh HTS 19.4, ALR inh 4.0, AF4-AF9 inh 3.5, HNF4A DNA FP -5.9, rRNA inh HTS OD600 8.6 and rRNA inh HTS RFP 2.2.
`CC(=O)Nc1ccc(OCC(=O)N2CCc3ccccc3C2)cc1` gave FGF22 binding inactive, Ecoli growth 0.689, rRNA inh HTS 2.3, AF4-AF9 inh 0.4, HNF4A DNA FP -0.8, Vif TR-FRET 45.9%, rRNA inh HTS OD600 11.6 and rRNA inh HTS RFP -0.3.
For Cc1ccc(S(=O)(=O)CC(=O)Nc2ccc(Cl)cn2)cc1 the results were FGF22 binding inactive, Ecoli growth 0.686, rRNA inh HTS -0.4, ALR inh 20.9, AF4-AF9 inh -1.3, HNF4A DNA FP 33.6*, Vif TR-FRET 14.6%, rRNA inh HTS OD600 13.9 and rRNA inh HTS RFP 0.2.
`Cn1c(CCNC(=O)C(C)(C)C)nc2ccccc21` gave Ecoli growth 0.712, ALR inh -5.3, HNF4A DNA FP 0.2 and Vif TR-FRET -5.8%.
`O=C(Nc1cccc(Cl)c1N1CCCC1)c1cccc(-c2cc3ccccc3oc2=O)c1` gave Ecoli growth 0.73, ALR inh 0.5, HNF4A DNA FP 0.3 and Vif TR-FRET -10.5%.
For C[C@H](CO)N1C[C@H](C)[C@@H](CN(C)C(=O)Nc2ccccc2)Oc2ccc(NS(=O)(=O)c3ccccc3)cc2CC1=O the results were FGF22 binding inactive, rRNA inh HTS 0.5, AF4-AF9 inh -3.8, rRNA inh HTS OD600 3.9 and rRNA inh HTS RFP -0.4.
For O=S(=O)(NCC(c1cccnc1)N1CCN(Cc2ccccc2)CC1)c1ccccc1 (centres undefined) the results were FGF22 binding inactive, Ecoli growth 0.756, rRNA inh HTS 19.8, ALR inh -1.4, AF4-AF9 inh 2.4, HNF4A DNA FP 0.7, Vif TR-FRET 2.0%, rRNA inh HTS OD600 13.2 and rRNA inh HTS RFP 3.2.
Screening CCS(=O)(=O)NCC[C@@H]1CC[C@@H](NS(=O)(=O)c2ccccc2C)[C@H](CO)O1 returned FGF22 binding inactive, rRNA inh HTS 1.3, AF4-AF9 inh 1.7, rRNA inh HTS OD600 1.3 and rRNA inh HTS RFP -1.1.
`Cc1ccc2cc(CCNC(=O)c3ccc(S(=O)(=O)N4CCCCC4)cc3)c(=O)[nH]c2c1` gave FGF22 binding inactive, Ecoli growth 0.721, rRNA inh HTS 16.0, ALR inh -6.1, AF4-AF9 inh 2.7, HNF4A DNA FP -1.3, Vif TR-FRET -6.1%, rRNA inh HTS OD600 14.6 and rRNA inh HTS RFP -0.7.
For NC(=S)c1ncc(C(F)(F)F)cc1Cl the results were FGF22 binding inactive, Ecoli growth 0.693, rRNA inh HTS -1.2, ALR inh 0.7, AF4-AF9 inh -1.4, HNF4A DNA FP 0.0, Vif TR-FRET 7.0%, rRNA inh HTS OD600 -6.1 and rRNA inh HTS RFP -2.9.
Screening CC(=O)N1CCN(C(=O)c2cccc(S(=O)(=O)NCc3ccccc3)c2)CC1 returned FGF22 binding inactive, Ecoli growth 0.695, rRNA inh HTS 0.8, ALR inh -7.5, AF4-AF9 inh -1.0, HNF4A DNA FP 0.0, Vif TR-FRET 1.6%, rRNA inh HTS OD600 6.6 and rRNA inh HTS RFP -4.4.

Compound activity deposited in PubChem by several laboratories.
